Bm FixLJ act – activators of Burkholderia fixLJ two-component system; B. multivorans fixK-promoter GFP reporter, 18 h; stronger effect = higher value; z-score (no concentration beside the values); 0.3% of 29,000 active; AID 1918990;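 active means replicate mean overnight rise in green fluorescent reporter signal, 3 or more SD over negative controls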;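 further: score is relative to vehicle wells of the plate; 300 nL library stock went into each well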
* hit, by the source's call; & = joins results of further samples. Some of the compounds tested, so the mix of outcomes need not match the whole.

SMILES	Bm FixLJ act
CCN(CC)CCOC(=O)c1ccc(NC(=O)c2nn(-c3ccc(C)cc3)c(=O)c3c2c2ccccc2n3C)cc1	0.46
COc1ccc(NC(=O)CSC2=Nc3ccccc3C3=NC(CCC(=O)NCc4ccc(F)cc4)C(=O)N23)cc1Cl (stereo not drawn)	-1.8
COc1ccc(C2Oc3nc(SC)nnc3-c3ccccc3N2C(C)=O)cc1 (stereo not drawn)	-2.6
COc1ccc(NC(=O)c2sc3nc(C)c(C(=O)Nc4ccc(C)cc4C)c(-c4cccs4)c3c2N)cc1	-1
Cc1ccc(O)c(NC(=O)c2cc(-c3ccc(F)cc3)on2)c1	-1.4
COC(=O)[C@H](Cc1ccccc1)NC(=O)[C@@H](N)CC(=O)O	-2.1
CC(C)c1nc(CN(C)C(=O)c2ccc(N3CCCC3)c(Cl)c2)no1	0.3
COc1ccccc1N1CCN(S(=O)(=O)c2c(C)sc3ncn(CC(=O)Nc4ccc(C)cc4Br)c(=O)c23)CC1	-1.8
COc1ccc(C(=O)O)cc1S(=O)(=O)NC1COCC1N1CCCC1 (stereo not drawn)	-0.34
COC(=O)c1cc(O)cc(C(=O)N2CCC3(CC2)OCCc2ccsc23)c1	0.04
CCCOc1c(CN2CCn3nc(C(C)O)cc3C2)cc(Cl)cc1OC (stereo not drawn)	0.81
O=C(c1cc2sccc2[nH]1)N1CCc2[nH]c3ccccc3c2C1	-3.9
COc1ccccc1-c1cc(C(=O)Nc2c(C)nn(Cc3ccc(Cl)cc3)c2C)no1	-1.9
COc1ccc(CCNC(=O)N2CCC(c3ccn[nH]3)CC2)c(OC)c1	-0.15
CCOc1ccc(C(=O)c2cn(CC(=O)Nc3ccc(F)cc3)c3cc4c(cc3c2=O)OCO4)cc1	2.3
COc1ccccc1N1CCN(C(=O)CN2C(=O)COc3ccc(S(=O)(=O)N4CCC(C)CC4)cc32)CC1	-0.69
Cc1nc2ccccc2n1Cc1cc(C(=O)N2CC=CC2)n[nH]1	0.98
CCCN(C(=O)Cn1ncc2c(=O)oc3ccccc3c21)c1cccc(C)c1	-1.4
Cc1nc2ccc(C(=O)N3CC(C(=O)O)C(c4ccc(F)cc4)C3)cc2[nH]1 (stereo not drawn)	0.28
CCc1ccc(NC(=O)c2c(C(=O)Nc3ccccc3)sc3nc(C)cc(=O)n23)cc1	-0.13
Nc1c(C(=O)Nc2cccc(Br)c2)sc2nc3c(cc12)N1CCC3CC1	-3.3
CCSc1ncc(Cl)c(C(=O)Nc2sc(C(C)=O)c(C)c2C(=O)OC)n1	-0.92
CCOc1ccc(NC(=O)c2nc3nc(C)cc(C(F)F)n3n2)cc1	-1.6
CCC(=O)N1CCc2cc(S(=O)(=O)NC(C(=O)NCc3ccc(OC)cc3)C(C)C)ccc21 (stereo not drawn)	-1.1
COc1ccc(C2=NC3(CCCCCC3)N(CC(=O)Nc3ccc(C)c(C)c3)C2=O)cc1	-0.87
COC(=O)c1c(NC(=O)COc2cccc(C(F)(F)F)c2)sc2c1CCCC2	0.16
COc1ccc(NC(=O)c2sc3nc(C)c(C(=O)Nc4ccc(Cl)cc4)c(-c4ccc(Br)cc4)c3c2N)cc1	0.54
CC(C)c1ccc(C(=O)CC2(O)C(=O)N(CCc3ccccc3)c3ccc(Cl)cc32)cc1 (stereo not drawn)	0.79
CC(=O)Nc1ccc(-n2cc3c(c2-c2ccc(C)cc2)c(=O)n(C)c(=O)n3C)cc1	0.29
COc1cc(OC)cc(-c2cc(C(=O)O)cc(S(=O)(=O)NC3CC3)c2)c1	-0.18
O=C(NCCc1noc(C2CCCC2)n1)c1cnn2cc(CCO)cnc12	0.44
COc1cccc(N2CCN(C(=O)c3cc4c(s3)-c3ccccc3OC4)CC2)c1	1.1
CC1=C(/C=C/C(C)=C/C=C/C(C)=C/C=C/C=C(C)/C=C/C=C(C)/C=C/C2=C(C)C(=O)CCC2(C)C)C(C)(C)CCC1=O	-1.1
Cc1cccc(-n2c(/C=C/c3c(C)[nH]c4ccccc34)nc3ccccc3c2=O)c1	0.55
CNC(=O)c1cc(Nc2nnc(-c3ccc(O)cc3)c3ccccc23)ccc1OC	-0.21
COc1ccc(/C=C(\C#N)c2nc3ccccc3n2C)c(OC)c1	-3
OCCCCCNc1nccc(-c2cnn(-c3ccc(F)cc3)c2)n1	-0.49
CCN1CCOC(=O)C1CC(=O)Nc1ccc(C)c(Cl)c1 (stereo not drawn)	-0.45
CCOC(=O)N1CCc2c(sc3c2c(=O)n(Cc2ccccc2)c(=O)n3CC(=O)Nc2c(C)cccc2C)C1	0.21
COC(=O)c1sc(-c2ccccc2)cc1NC(=O)c1cccc(F)c1	-1.4
O=C(c1ccc2c(c1)N(Cc1ccc(F)cc1)C(=O)c1ccccc1S2(=O)=O)N1CCN(c2ccccn2)CC1	2
CC(C)c1nc(C2CC(=O)N(CCN(C)C)C2)n(C(C)(C)C)n1 (stereo not drawn)	-1.2
CCOCC(=O)N1CCCC(c2nccn2Cc2ccncc2)C1 (stereo not drawn)	1.2
Cc1nc(N(C)C)nc(NC2COCC2Cc2ccnc3ccccc23)c1C (stereo not drawn)	-2
CCCc1ccc(C(=O)NC2COCC2Cc2ccncc2)cc1 (stereo not drawn)	-1
CCc1nn(CC(=O)NCc2ccco2)c(=O)c2cc3cc(F)ccc3n12	1.5
NC(=O)c1ccc(C(=O)NC2COCC2Cc2ccnc3ccccc23)cc1 (stereo not drawn)	-0.93
COc1ccc(-c2nc3ccccc3o2)cc1NC(=O)c1cc(Br)ccc1OC	-0.52
CC(C)CCN1CC2(CCCN(C(=O)c3cccc(CO)n3)C2)CCC1=O (stereo not drawn)	-0.49
COc1ccc(CNC(=O)CSc2nc(-c3ccc(OC)c(OC)c3)cc(C(F)(F)F)n2)cc1	-2.2

New compounds follow
SMILES	Bm FixLJ act
COCC(=O)N1CCc2[nH]cnc2C12CCN(C(=O)C(C)c1ccccc1)CC2 (stereo not drawn)	-0.81
O=C(c1ccc2c(c1)N(Cc1ccc(Cl)cc1)C(=O)c1ccccc1S2(=O)=O)N1CCCCCC1	-0.26
CCOc1ccc(NC(=O)C2CCCN(S(=O)(=O)c3cccc4nonc34)C2)cc1 (stereo not drawn)	-0.38
O=C(CCS(=O)(=O)c1cc(Br)cc2c1N(C(=O)C1CC1)CC2)N1CCN(c2cccc(Cl)c2)CC1	-0.4
Cc1ccn2c(=O)c(C(=O)NCCc3ccc(S(N)(=O)=O)cc3)c(O)nc2c1	-0.41
COC(=O)c1c(C)oc2ccc(N(C(=O)c3ccncc3)S(=O)(=O)c3cc(C)ccc3C)cc12	-1.4
CC(C)NC(=O)c1nn(-c2ccccc2F)nc1CO	0.18
O=C(Nc1ccc(Br)cc1)c1cc(-c2cccs2)nc2ccccc12	-2.2
CC(C)Oc1ccc(NC(=O)c2cc3ccccc3o2)cc1	-1.8
CCOc1ccc(C(=O)c2cn(CC(=O)Nc3ccc4c(c3)OCO4)c3ccc(OC)cc3c2=O)cc1	-0.5

7 entries drawn at random from those above:
SMILES	Bm FixLJ act
CCOc1ccc(NC(=O)C2CCCN(S(=O)(=O)c3cccc4nonc34)C2)cc1 (stereo not drawn)	-0.38
O=C(CCS(=O)(=O)c1cc(Br)cc2c1N(C(=O)C1CC1)CC2)N1CCN(c2cccc(Cl)c2)CC1	-0.4
Cc1ccn2c(=O)c(C(=O)NCCc3ccc(S(N)(=O)=O)cc3)c(O)nc2c1	-0.41
COC(=O)c1c(C)oc2ccc(N(C(=O)c3ccncc3)S(=O)(=O)c3cc(C)ccc3C)cc12	-1.4
COCC(=O)N1CCc2[nH]cnc2C12CCN(C(=O)C(C)c1ccccc1)CC2 (stereo not drawn)	-0.81
CC(C)NC(=O)c1nn(-c2ccccc2F)nc1CO	0.18
O=C(Nc1ccc(Br)cc1)c1cc(-c2cccs2)nc2ccccc12	-2.2

Continued.
SMILES	Bm FixLJ act
CN(C)c1nc(-c2cccnc2)nc2c1CCN(C(=O)CCO)C2	0.3
CCCSc1ncc(Cl)c(C(=O)Nc2scc(-c3ccc(C)cc3)c2C(=O)OCC)n1	-1.1
COc1ccccc1N1CCN(C(=O)c2cc(CC(C)C)on2)CC1	-1.5
Cc1ccc(NC(=O)Cn2c(CCC(=O)O)ccc2-c2cccs2)cc1Cl	-1.1
CCCn1cc(CNC(=O)N(CCO)Cc2ccccc2F)cn1	0.25
CCOC(=O)c1cccc(NC(=O)CCc2c(C)nc3c4cccnc4nn3c2C)c1	-1.7
CCCCN1C(=O)c2[nH]nc(-c3ccccc3O)c2C1c1ccc(OCc2ccccc2)c(OC)c1 (stereo not drawn)	-0.97
CCOC(=O)c1[nH]c2ccccc2c1NC(=O)c1ccc(Br)cc1	0.44
CCOc1ccc(C(=O)Nc2cc(-c3nc4cc(OC)ccc4o3)ccc2C)cc1[N+](=O)[O-]	-0.11
COc1ccc2c(c1)C(C(=O)NCCCn1ccnn1)CC(=O)N2 (stereo not drawn)	1.1
CC1=C(C(=O)OC2CCCC2)C(c2ccccc2Cl)CC(=O)N1 (stereo not drawn)	-0.12
CCc1cc(NC(C)c2ccc(C)nc2)n2nc(C)c(C)c2n1 (stereo not drawn)	-1.4
CCn1c(CNC(=O)C23CC4CC(CC(C4)C2)C3)nnc1SCC(=O)Nc1ccc(F)cc1	-2.2
CN(Cc1ccccc1)C(=O)c1cn(C)c2ccc(S(=O)(=O)N3CCCCC3)cc2c1=O	-0.34
O=C(CCCn1ccnc1)N1CCCC(c2nccn2Cc2ccncc2)C1 (stereo not drawn)	-1.4
COC(=O)c1cc2sc(C)cc2n1Cc1ccccc1	0.86
CCOC(=O)N1CCC(NC(=O)c2ccc3c(c2)N(Cc2ccccc2)C(=O)c2ccccc2S3=O)CC1 (stereo not drawn)	0.06
Cc1cc(C)cc(NC(=O)Cn2cc(C(=O)C3CCCCC3)c3ccccc32)c1	-0.11
COc1ccc2c(c1)-c1nc(NC(=O)c3cc(Cl)ccc3OC)sc1CC2	-2
Cc1cccc(-c2nc(Cn3c(SCc4cc(C)ccc4C)nc4ccncc43)c(C)o2)c1	-0.86

In the list so far, four contain two or more sulfur atoms.
SMILES	Bm FixLJ act
COc1ccc(NC(=O)c2sc3nc(C)c(C(=O)Nc4ccc(C)cc4C)c(-c4cccs4)c3c2N)cc1	-1
COc1ccccc1N1CCN(S(=O)(=O)c2c(C)sc3ncn(CC(=O)Nc4ccc(C)cc4Br)c(=O)c23)CC1	-1.8
CCSc1ncc(Cl)c(C(=O)Nc2sc(C(C)=O)c(C)c2C(=O)OC)n1	-0.92
CCCSc1ncc(Cl)c(C(=O)Nc2scc(-c3ccc(C)cc3)c2C(=O)OCC)n1	-1.1

(further entries)
SMILES	Bm FixLJ act
CCCCCNC(=O)CCCCCn1c(=O)[nH]c2ccsc2c1=O	-0.01
COc1ccccc1C1c2c(-c3ccc(Cl)cc3)n[nH]c2C(=O)N1c1ccc(C)cc1 (stereo not drawn)	0.78
CCCCOc1ccc(C(=O)N/C(=C\c2ccc(Br)cc2)C(=O)NC2CCCCC2)cc1	0.5
CCOc1cccc(C2c3[nH]c4ccccc4c3CCN2C(=O)Cc2cccc(OCC)c2OCC)c1 (stereo not drawn)	0
Cc1ccc2nc3c(cc(C#N)c(=O)n3-c3nnc(SCc4ccc(F)cc4)s3)c(=O)n2c1	-0.79
COc1ccc(CNC(=O)CSCc2nc(-c3ccccc3F)oc2C)cc1	-0.02
CCOC(=O)c1c(C)c(C(=O)NCc2ccc(OC)cc2)c(C)n1CC	0.17
OC1CN(Cc2cnc(C3CCCCC3)nc2)CCC1Nc1ncccn1 (stereo not drawn)	-0.53
CC(C)(C)C1CCc2c(sc(NC(=O)C3c4ccccc4Oc4ccccc43)c2C(N)=O)C1 (stereo not drawn)	-0.52
CCCN1CCN(CCCNC(=O)c2cc3c(=O)[nH]c4ccccc4c3s2)CC1	-0.87

Ordered by count of non-hydrogen atoms (largest number first): some entries from above
SMILES	Bm FixLJ act
O=C(c1ccc2c(c1)N(Cc1ccc(F)cc1)C(=O)c1ccccc1S2(=O)=O)N1CCN(c2ccccn2)CC1	2
COc1ccccc1-c1cc(C(=O)Nc2c(C)nn(Cc3ccc(Cl)cc3)c2C)no1	-1.9
COc1ccc(CCNC(=O)N2CCC(c3ccn[nH]3)CC2)c(OC)c1	-0.15

New compounds follow:
SMILES	Bm FixLJ act
CCn1ccnc1CN1CCC(CNC(=O)C2CCCCC2)C1 (stereo not drawn)	1.5
COc1cc(/C=C(\C#N)c2nc3ccccc3[nH]2)ccc1OCc1cccc(C(F)(F)F)c1	2.6
COc1ccc(Nc2c3c(nc4ccc(NC(=O)c5ccc(F)cc5)cc24)CCCC3)cc1OC	-0.59
CC1CCN(c2nc(-c3ccc(C(C)(C)C)cc3)nc3ccccc23)CC1	-0.7
CC(C)(O)c1cn(C2CCN(C(=O)C3CC34CCCCC4)CC2)nn1 (stereo not drawn)	0.45
Cc1[nH]nc(CCC(=O)N2CCC(Oc3ncccn3)CC2)c1C	-0.51
Cc1ccc(C(=O)Oc2c(S(=O)(=O)c3ccccc3)c(C)nn2-c2ccccc2)cc1	-0.07
Cc1ccc(N2CCN(C(=O)C3CCN(S(=O)(=O)c4ccc5c(c4)oc(=O)n5C)CC3)CC2C)cc1 (stereo not drawn)	-1.4
Cc1ccc(-c2nc(CS(=O)(=O)CC(=O)Nc3cc(C)ccc3C)c(C)o2)cc1	-0.79
Cc1ccc(CCNC(=O)c2ccc(Nc3nc4ccccc4n4nnnc34)cc2)cc1	-1.1
COc1ccc(CN(CCN(C)C)c2ncccn2)cc1	0.14
Cc1cc(OCC(=O)N(Cc2sccc2C)C2CCS(=O)(=O)C2)ccc1Cl (stereo not drawn)	-0.75
COc1ccc(NC(=O)NC(C)(C)c2nnc(N)s2)c(OC)n1	1
c1n[nH]c(N2CCN(CC3CCCN4CCCC[C@@H]34)CC2)n1 (stereo partly drawn)	-0.49
O=C(COCc1cc(-c2ccc(F)cc2)on1)Nc1cc(Cl)ccc1O	0.38
COC(=O)c1ccc(NS(=O)(=O)c2ccc3c(c2)n(C)c(=O)c(=O)n3C)cc1	1.2
CCCSc1nnc2n(-c3ccc(OC)cc3)c(=O)c3c4c(sc3n12)COC(C(C)C)C4 (stereo not drawn)	-2.8
COc1ccc(C(=O)Nc2ccc3nc(N4CCCCC4)cc(C)c3c2)c(OC)c1	-0.15
CN(C)[C@@H]1C(=O)C(C(N)=O)=C(O)[C@@]2(O)C(=O)C3=C(O)c4c(O)cccc4[C@@](C)(O)[C@H]3C[C@@H]12	-0.63&-3.1
Cc1nc(N2CCCC2)nc(NCCC2(O)CCCC2)c1C	1.6
